Compound activity (PubChem)
Hsc70 ATP site: Hsc70 inhibitors, probe displacement, primary screen, biochemical, fluorescence polarization (AID 568); Hsc70 fluorescence polarization, probe displacement; higher % means a stronger effect; strong numbers were not always called active; displacement, % at 20 µM; hits with a dose series show IC50 in µM; 83,000 tested, under 10 active;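 active = displacement above 50% without optical interference and an IC50 on retest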;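 note: ATPase domain with a fluorescein-tagged ATP probe; 0% = vehicle and 100% = excess ADP; read after one hour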
WNV protease inh: WNV NS2B-NS3 proteinase inhibition | P06935 | AID 577 | z-score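 (tested at a level between 10 and 100 µM)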 | 0.18% of 65,000 active | WNV NS2B-NS3 protease, fluorogenic substrate Ex360/Em465; hits give low values;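 active = z-score at -3 or under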;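 note: score is relative to mean and spread of the compound wells of a plate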
Target sequence (P06935 1371-1501 limits assumed): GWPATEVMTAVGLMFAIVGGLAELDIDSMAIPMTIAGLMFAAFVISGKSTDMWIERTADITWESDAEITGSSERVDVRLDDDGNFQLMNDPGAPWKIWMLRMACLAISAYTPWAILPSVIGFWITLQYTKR
Target sequence (P06935 1502-1679 limits assumed): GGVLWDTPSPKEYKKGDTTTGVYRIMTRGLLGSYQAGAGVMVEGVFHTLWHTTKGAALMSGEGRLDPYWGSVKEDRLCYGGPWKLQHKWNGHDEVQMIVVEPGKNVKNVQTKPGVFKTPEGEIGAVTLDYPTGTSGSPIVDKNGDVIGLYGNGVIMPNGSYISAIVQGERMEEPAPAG
MT1-MMP promoter: MT1-MMP gene expression reporter suppression – cell-based, luciferase reporter, luminescence (AID 618). MT1-MMP promoter luciferase reporter cells, luminescence. calls from a first round at 10 µM; hits with a dose series show EC50 in µM. 0.62% of 87,000 active;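 active = over half of the reporter light lost at 10 µM or EC50 under 50 µM; inactive = the rest and hits that failed the dose series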;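 note: actives suppress MT1-MMP promoter-driven transcription so potencies describe inhibitors; HT1080 fibrosarcoma cells; overnight exposure; toxic or luciferase-blocking compounds were not removed from the actives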
The depositor's hits bear a star; i = inactive; . = no result given. Not all compounds are listed; the hit share may differ from the screen's.

SMILES	Hsc70 ATP site	WNV protease inh	MT1-MMP promoter
CCOC(=O)C1CCCN(c2ncnc3c2cnn3-c2ccc(Cl)cc2)C1 (stereo unspecified)	-6.3%	-0.8	i
CN(C)c1ccc(-c2noc(C3CCN(S(=O)(=O)c4cccc(C(=O)O)c4)CC3)n2)cc1	-5.5%	.	i
CCc1nc(C)cn1S(=O)(=O)c1cc(Br)ccc1OC	-1.3%	-0.82	i
CC(NC(=O)Cc1ccccc1)c1nc2ccccc2[nH]1 (stereo unspecified)	-2.9%	-0.78	i
O=P(O)(CP(=O)(c1ccccc1)c1ccccc1)c1ccccc1	-1.1%	-1.2	i
COC(=O)c1cc(S(=O)(=O)n2nc(C)cc2C)c(Cl)cc1Cl	9.3%	-0.59	i
COc1ccc2nc(SCC(=O)NC(C)C)[nH]c2c1	-0.1%	-0.04	i
COc1cc(NS(=O)(=O)c2ccc(F)cc2)c(OC)cc1NC(=O)C1CC1	-0.9%	-0.27	i
CCCCOC(=O)c1cc(-c2ccc(/C=N/n3cnnc3)o2)ccc1Cl	-6.6%	.	i
Cc1cccn2c(=O)c(/C=C3\SC(=S)N(CC(C)C)C3=O)c(NCCCOC(C)C)nc12	-30%	.	i
CCOc1ccccc1OCC(O)CNC (stereo unspecified)	-2.3%	-0.01	i
COc1ccccc1CNC(=O)Nc1cccs1	-7.4%	-0.28	i
COCc1[nH]nc2c1C(c1ccccc1Cl)C(C#N)=C(N)O2 (stereo unspecified)	2.0%	0.71	i
COc1ccc2c(c1)C(C)=CC(C)(C)N2C(=O)CNCc1ccc2c(c1)OCO2	-3.7%	0.74	i
N#Cc1nc(-c2ccc(OCc3ccccc3)cc2)oc1NCc1ccco1	0.5%	-0.26	i
CCOc1ccc(S(=O)(=O)N(C)c2ccc(OCC(=O)OCc3c(C)noc3C)cc2)cc1	-4.1%	-1.2	i
Cc1cc2ccccc2c(=O)n1CC(=O)NCC(=O)N(C)Cc1ccccc1	-0.7%	-1.3	i
CCCCOC(=O)CSC1=C(C#N)C(c2ccc3c(c2)OCO3)CC(=O)N1 (stereo unspecified)	-7.2%	-1.1	i
Clc1ccc2c(c1)CNc1c(ncnc1N1CCOCC1)O2	-1.4%	-1.2	i
CCN(CC)c1ccc(NC(=O)C2CCCN(S(=O)(=O)c3cccnc3)C2)c(C)c1 (stereo unspecified)	0.4%	0.12	i
CC(=O)Nc1nc2n(n1)C(c1ccc(Cl)cc1)C=C(C)N2 (stereo unspecified)	-4.5%	1.2	i
CCOc1ccccc1-c1cc(-c2ccc(OC)cc2)nc2c1c(=O)n(C)c(=O)n2C	20%	1.1	i
COC(=O)c1nc(NC(=O)c2ccccc2)n[nH]1	2.6%	.	i
CC(=O)NC1(c2cccc(F)c2)CCN(CC(=O)NC(C)C)CC1	2.1%	.	i
Cc1ccc2c(c1)NC(=O)C(CC(=O)N(C)Cc1ccccc1)O2 (stereo unspecified)	4.8%	-0.76	i

Following part:
SMILES	Hsc70 ATP site	WNV protease inh	MT1-MMP promoter
c1ccc(OCCN2C3=NCCN3c3ccccc32)cc1	-0.6%	2	i
CCOC(=O)c1cc(CC)sc1N	6.3%	-1.1	i
Cc1cc(/C=N/n2cnnc2)c(C)n1-c1ccccc1	1.6%	.	i
O=C(NCCc1ccccc1)c1ccccc1NS(=O)(=O)N1CCCC1	3.7%	0.25	i
Cc1ccc(S(=O)(=O)N2CCN(C(=O)c3ccc(OCc4c(C)noc4C)cc3)CC2)cc1	-6.6%	-1	i
c1ccc2c(c1)OCC(c1csc3ncnc(N4CCCC4)c13)O2 (stereo unspecified)	6.4%	.	i
COc1ccc(OCC(=O)O/N=C(\N)Cc2ccc(Cl)cc2Cl)cc1	1.6%	.	i
Cn1cc(Cl)c(C(=O)OCC(=O)Nc2nc(-c3ccc(Br)cc3)cs2)n1	-3.1%	.	i
Cc1cc(C)nc(N2CCC(C(=O)Nc3ccc4c(c3)CCC4)CC2)n1	4.1%	-1.2	i
COc1ccc(NC(=O)N2CCCC2C(=O)Nc2ccc(C)c(Cl)c2)cc1 (stereo unspecified)	1.9%	0.58	i
O=c1[nH]c(=O)n(C2CCCO2)cc1F (stereo unspecified)	-3.8%	.	i
O=C(NCc1ccccc1)c1cccnc1N1CCOCC1	8.0%	-0.85	i
Cc1cc(OCC(=O)NCCCN2CCOCC2)cc(C)c1Cl	-2.6%	0.75	i
CC(/C=N/n1cnnc1)=C\c1ccccc1	-4.3%	.	i
O=S(=O)(c1ccc2ccccc2c1)N1C=CC(C(F)(F)F)=NCC1	2.7%	.	i
COc1ccc(N(CC(=O)Nc2ccc3c(c2)OCCO3)S(C)(=O)=O)c(OC)c1	4.1%	-0.99	i
CCCS(=O)(=O)N1CCC(C(=O)NCCc2ccc(OC)c(OC)c2)CC1	-2.4%	-0.53	i
O=C(Nc1ccc(F)cc1F)c1noc2c1CCC2	-13%	-1.4	i
COc1ccc(C(=O)NC(=S)N2CCC(C)CC2)cc1	4.1%	.	i
Cc1cc(N2CCC(C(=O)NC3CC3)CC2)nc(-c2ccccc2)n1	-1.2%	-0.38	i
CC(C)C(=O)Nc1cccc(-c2nc3ccccc3o2)c1	6.8%	-0.3	i
CCOC(=O)c1sc2ccc(S(=O)(=O)N3CCCCC3)cc2c1N	-2.7%	-0.66	i
CCOC(=O)C1CCN(C(=O)CCc2ccccc2)CC1	9.4%	0.44	i
CCCCCC(=O)Nc1ccc(N2CCN(CC)CC2)c(Cl)c1	2.4%	0.48	i
O=C(c1cccc(-n2cnnn2)c1)N1CCOCC1	1.0%	-0.83	i

More entries.
SMILES	Hsc70 ATP site	WNV protease inh	MT1-MMP promoter
CCn1nnc(-c2ccccc2NC(=O)c2cnccn2)n1	7.2%	.	i
O=C(COc1ccccc1)N1CCNC1=O	-4.8%	-0.07	i
O=C1NC2(Nc3ccccc31)C(=O)Nc1ccccc12 (stereo unspecified)	6.6%	0.4	i
CC(=O)c1ncnn1CC(=O)c1ccc(Cl)cc1Cl	-2.8%	-0.01	i
CCC(=O)Nc1nc2ccccc2n1CCN1CCOCC1	-7.2%	-0.47	i
Cc1cc(C)cc(Oc2ccc(C(F)(F)F)cc2C#N)c1	2.2%	.	i
COc1ccc(CNC(=O)C(C#N)c2nc3ccccc3nc2N2CCN(C)CC2)cc1 (stereo unspecified)	0.2%	1	i
CC(=O)NCCSC(=O)c1ccc(F)cc1	-0.9%	-0.51	i
CCCC(CCC)C(=O)Nc1ccncc1	-4.9%	-0.42	i
COc1cccc(C(=O)N(CN2CCCC2=O)c2ccccc2OC)c1	0.0%	0.41	i
COC(=O)c1ccccc1Oc1c(F)c(F)nc(N2CCOCC2)c1F	-1.2%	.	i
CCOC(=O)C1CCN(C(=O)CN(c2ccc(Cl)c(C(F)(F)F)c2)S(C)(=O)=O)CC1	0.1%	-0.11	i
CC(=O)c1cccc(NC(=O)N2CCCc3ccccc32)c1	-3.4%	-0.73	i
CCCOc1ccc(N2C(=O)CC(NCc3cccs3)C2=O)cc1 (stereo unspecified)	0.5%	.	i
CCC(=O)N1CCN(c2ccccc2NC(=O)c2cccc(C)c2)CC1	4.6%	-0.31	i
O=C(CCc1nc(-c2ccccc2)no1)NCc1cccnc1	-4.1%	.	i
CCOC(=O)c1ccc(NC(=O)N2CCN(c3ccccn3)CC2)cc1	-5.3%	0.2	i
O/N=C1\CCCc2oc3c(c21)CCCC3	-3.8%	-1.3	i
COc1cc(N2CCCC2)c(OC)cc1/C=C(/C#N)c1ccc(F)cc1	-61%	.	i
COCCn1c(=O)[nH]c2cc(C(=O)NCc3ccccc3)ccc2c1=O	-4.3%	.	i
O=C(NCC(c1cccnc1)N1CCN(c2ccc(F)cc2)CC1)c1cccc(Cl)c1 (stereo unspecified)	-6.0%	0.31	i
c1ccc(-c2nc(-c3ccccn3)no2)cc1	5.9%	.	8.2µM*
Nc1c(C(=O)NCc2ccccc2)nnn1Cc1ccc(F)cc1	6.8%	-0.16	i
O=C(c1ccc(F)cc1)C1CCN(C(=O)c2ccncc2)CC1	4.6%	-0.72	i
Cc1ccc(-c2csc3nc(=O)c(C)nn23)cc1	-3.8%	0.92	i

Whole records, quoted from the list. Order of values: Hsc70 ATP site	WNV protease inh	MT1-MMP promoter
O=C(CCc1nc(-c2ccccc2)no1)NCc1cccnc1 in the list: -4.1%	.	i
CCn1nnc(-c2ccccc2NC(=O)c2cnccn2)n1 in the list: 7.2%	.	i

By substructure: those above containing a furan ring, fused or not.
SMILES	Hsc70 ATP site	WNV protease inh	MT1-MMP promoter
CCCCOC(=O)c1cc(-c2ccc(/C=N/n3cnnc3)o2)ccc1Cl	-6.6%	.	i
N#Cc1nc(-c2ccc(OCc3ccccc3)cc2)oc1NCc1ccco1	0.5%	-0.26	i
O/N=C1\CCCc2oc3c(c21)CCCC3	-3.8%	-1.3	i

Later entries
SMILES	Hsc70 ATP site	WNV protease inh	MT1-MMP promoter
Cc1cc(C)nc(NC2=NC3CCCCC3N2)n1 (stereo unspecified)	3.8%	0.67	i
CCN(C1CCCCC1)S(=O)(=O)c1ccc(OC)c(C)c1	-0.5%	-0.3	i
CC(OC(=O)c1ccccc1NCc1ccco1)C(=O)Nc1ncc(Cl)cc1Cl (stereo unspecified)	-1.0%	0.64	i
CCOc1ccc(-c2cc(CCCC(=O)Nc3cccc(OC)c3)no2)cc1	0.0%	1.6	i
CC(Sc1nc(-c2ccccc2)cc(C(F)(F)F)n1)C(=O)NCCN1CCOCC1 (stereo unspecified)	-3.6%	-0.67	i
COc1cc(C2=NOC(C(=O)N3CCOCC3)C2)cc(OC)c1OC (stereo unspecified)	5.0%	0.42	i
COc1ccc(CCNC(=O)Cn2c(-c3nonc3N)nc3ccccc32)cc1OC	-9.0%	-1.4	i
Cc1cccc(N2CCN(C(=O)c3cc4ccccc4oc3=O)CC2)c1C	-1.8%	0.19	i
C#CCOC(=O)c1ccccc1C(=O)n1nnc2ccccc21	-1.0%	-0.66	i
CC(C)OC(=O)CN1C(=O)C(C)(C)Oc2ccc(C(=O)NC(C)(C)C)cc21	4.1%	0.21	i
O=C(Nc1ccccc1)OCc1ccccn1	-3.1%	0.07	i
CC1Cc2cc(C(=O)O)ccc2O1 (stereo unspecified)	-2.9%	2	i
CC1CCCCN1CCNC(=O)c1cc2c(=O)n(C)c3ccccc3c2n1C (stereo unspecified)	6.6%	-0.61	i
O=c1c2ccccc2nc2c3ccccc3c3nncn3n12	0.5%	0.67	i
O=C(C1CC1)N1CCc2cc(S(=O)(=O)NCCC3=CCCCC3)ccc21	-5.8%	-1.5	i
CCOC(=O)c1cc(-c2ccc3c(c2)OCCO3)nc2c1c(C)nn2CCC#N	3.9%	1	i
Cc1ccc2c(c1)NC(=O)C(CC(=O)NCCCN1CCN(C3CCCCC3)CC1)O2 (stereo unspecified)	2.4%	0.33	i
O=C(c1cc(-c2cccs2)nc2ccccc12)N1CCN(S(=O)(=O)c2ccccc2)CC1	-0.9%	.	i
COc1ccc(-n2[nH]c(C)cc2=O)cc1	-0.6%	-1.1	i
CC1Cc2ccccc2N1C(=O)COC(=O)Cn1nnc(-c2ccccc2)n1 (stereo unspecified)	-1.3%	-0.53	i
O=C(COc1ccccc1Br)NCc1ccccn1	7.1%	.	i
CN1CCc2c(sc3c2c(=O)n(-c2cccc(Cl)c2)c2nncn32)C1	-5.8%	0.71	i
CCCc1nc2oc3c(OCC)ncnc3c2c2c1COC(C)(C)C2	40%	.	i
CCOC(=O)N1CCN(C(c2cccnc2)c2ccc3cccnc3c2O)CC1 (stereo unspecified)	2.5%	.	i
COCCn1c(SCC(=O)Nc2nnc(C)s2)nnc1-c1ccncc1	0.4%	0.66	i

More records.
SMILES	Hsc70 ATP site	WNV protease inh	MT1-MMP promoter
O=C(CSc1nnnn1-c1ccc2c(c1)CCC2)NCc1cccs1	5.9%	2.5	i
O=C(CSc1nc(-c2ccco2)cc(C(F)(F)F)n1)NCC1CCCO1 (stereo unspecified)	1.3%	-0.95	i
Cc1ccc(-c2onc3ccc(C=O)cc23)cc1	10%	.	i
Nc1ncnc2c1ncn2CCOc1ccccc1	3.1%	-0.17	i
COc1ccc(C2CC(C(F)(F)F)n3nc(CO)c(Cl)c3N2)cc1OC (stereo unspecified)	8.6%	0.72	i
Cc1ccc(C(=O)CN2CCC(NC(=O)C3CCCCC3)CC2)cc1	2.1%	-0.18	i
N#CC1=C(N)Oc2nc(-c3ccccc3)[nH]c2C1c1cccnc1 (stereo unspecified)	-5.0%	0.71	i
CCN1CCN(CC(=O)Nc2c(C(=O)OC)[nH]c3cccc(Cl)c23)CC1	-3.6%	-0.09	i
COCCNC(=O)C(c1cccs1)N(Cc1ccccc1)C(=O)Cn1nnc2ccccc21 (stereo unspecified)	0.4%	.	i
Nc1ncnc(Nc2cccc(C(F)(F)F)c2)n1	-0.3%	.	i
COc1ccccc1NC(=O)Cc1noc(CSc2nnc(C)s2)n1	-0.7%	-0.38	i
O=C(NC1CC1)c1ccc(COc2ccc(F)cc2)o1	-1.1%	0.41	i

In the list so far, six contain an aryl thioether with sulfur outside any ring.
SMILES	Hsc70 ATP site	WNV protease inh	MT1-MMP promoter
COc1ccc2nc(SCC(=O)NC(C)C)[nH]c2c1	-0.1%	-0.04	i
CC(Sc1nc(-c2ccccc2)cc(C(F)(F)F)n1)C(=O)NCCN1CCOCC1 (stereo unspecified)	-3.6%	-0.67	i
COCCn1c(SCC(=O)Nc2nnc(C)s2)nnc1-c1ccncc1	0.4%	0.66	i
O=C(CSc1nnnn1-c1ccc2c(c1)CCC2)NCc1cccs1	5.9%	2.5	i
O=C(CSc1nc(-c2ccco2)cc(C(F)(F)F)n1)NCC1CCCO1 (stereo unspecified)	1.3%	-0.95	i
COc1ccccc1NC(=O)Cc1noc(CSc2nnc(C)s2)n1	-0.7%	-0.38	i
